Screening data as filed in PubChem.
D2 agonist – agonists of human D2 dopamine receptor (beta-arrestin). DiscoveRx PathHunter D2 beta-arrestin, luminescence, 90 min; 100% = 57 uM dopamine signal. hit rate 0.084% among 360,000. P14416. activation, % (test concentration not listed); in the data active = activation above about 40%; inconclusive = about 15% to 40%; inactive = below about 15%; further: compound concentration not given in the record; the text of the record calls up to 30% inactive
Target sequence (P14416 whole entry, looked up): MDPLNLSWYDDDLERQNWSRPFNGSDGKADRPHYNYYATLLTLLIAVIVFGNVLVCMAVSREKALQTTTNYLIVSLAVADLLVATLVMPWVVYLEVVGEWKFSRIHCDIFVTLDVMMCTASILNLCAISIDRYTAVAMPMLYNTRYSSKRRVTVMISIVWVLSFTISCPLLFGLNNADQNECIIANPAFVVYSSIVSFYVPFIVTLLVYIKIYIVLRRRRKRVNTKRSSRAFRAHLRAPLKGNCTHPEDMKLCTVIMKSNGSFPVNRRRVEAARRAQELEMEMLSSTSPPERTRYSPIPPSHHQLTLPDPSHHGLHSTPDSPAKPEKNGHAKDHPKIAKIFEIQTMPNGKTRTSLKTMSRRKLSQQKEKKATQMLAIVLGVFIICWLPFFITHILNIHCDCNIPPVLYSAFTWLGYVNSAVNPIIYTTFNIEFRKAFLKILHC
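DiscoveRx PathHunter D2 beta-arrestin cells (2,100/well) attached overnight, then compound-stimulated 90 min at 37 C in HBSS/10 mM HEPES/0.1% Tween-20 buffer; beta-galactosidase complementation read by luminescence after 1 h at ambient temperature. Dopamine 57 uM final (EC100) as control.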
ClpP mod – qHTS Assay for Activators of ClpP. ATP-dependent Clp protease proteolytic subunit (Bacillus subtilis (strain 168)), P80244. purified B. subtilis ClpP, FRET peptide cleavage, 20 min. Potency, µM (doses to about 57.5 µM), for the others: at the highest dose activity change, negative = active. hit rate 1.9% among 340,000; active = well fitted falling curve with a large enough effect; inconclusive = small, poorly fitted or top-dose-only effect; inactive = no such curve, though single readings can be large or run the other way; further: potency means the concentration at half of the fitted maximal effect; the source files actives as falling curves though it sought activators and does not explain the sign; nearly all actives have a fitted effect of over 65% in size; many hits overshoot -100%
Target sequence (P80244 whole entry, looked up): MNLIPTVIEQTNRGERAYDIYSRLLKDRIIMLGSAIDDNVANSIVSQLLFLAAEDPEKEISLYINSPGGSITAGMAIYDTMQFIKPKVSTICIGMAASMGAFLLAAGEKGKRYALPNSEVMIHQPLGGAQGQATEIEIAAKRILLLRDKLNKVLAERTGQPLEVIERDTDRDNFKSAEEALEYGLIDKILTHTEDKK
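Buffer: 100 mM Tris/HCl pH8, 100 mM KCl, 0.05% low protease BSA, 2.5% glycerol, 0.01% Tween-20. ClpP 10 microg/mL final; 20 min RT; delta FRET normalized to ADEP and DMSO controls.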
Sfp PPTase inh – inhibitors of Bacillus subtilis Sfp phosphopantetheinyl transferase | hit rate 3.5% among 310,000 | Biochemical Sfp PPTase activity, qHTS | Potency, µM, inactives show max response, negative = inhibition, usual class: inhibitors | Q9F4F7 | AID 1490; active means well fitted inhibition curve with a large enough effect; inconclusive means small, poorly fitted or top-dose-only effect, or another doubt; inactive means no such curve, though single readings can be large or run the other way;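 further: the enzyme is Sfp with the accession as filed and its product quenches rhodamine fluorescence; potency means the concentration at half of the fitted maximal effect; 0% = enzyme reaction without inhibitor and -100% = no enzyme wells; top concentration of the series not given in the record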
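With Hepes-Na pH 7.6 buffer containing 10 mM MgCl2, Sfp (15 nM) modified BHQ-2-YbbR (12.5 uM) using rhodamine-CoA (5 uM). Two reads 30 minutes apart at 525/598 nm yielded each well's rate.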
gsp ag – gsp mutant agonism; gsp mutant cells, cAMP HTRF, 30 min; control for the full effect not named in the record; Potency, µM (titrated, usually from 76.9 µM), for the others: at the highest dose activation (cAMP increase), actives largely listed as activators; hit rate 0.13% among 340,000; AID 624287; active = well fitted activation curve with a large enough effect; inconclusive = small, poorly fitted or top-dose-only effect, or another doubt; inactive = no such curve, though single readings can be large or run the other way; cell line not stated here;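 further: phosphodiesterase inhibitor Ro 20-1724 added with compounds to block cAMP breakdown; potency means the concentration at half of the fitted maximal effect; nearly all actives have a fitted effect of over 60% in size; about a fifth of the inactives were tested at one dose only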
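Cells in DMEM/10% FBS with G418 were pretreated with compounds in DMSO plus […] (300 uM stock) for 30 min at 37C. cAMP was measured by HTRF (cAMP-d2 plus anti-cAMP antibody-K) after 30 min at room temperature.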
Menin-MLL FL inh – displaces fluorescein MLL peptide from human menin | Fluorescence polarization, fluorescein-MLL peptide displacement from menin | FP activity change, % at 61.4 µM | 290,000 tested, under 10 active; inconclusive = falling polarisation curve, or a change in total fluorescence; inactive = total fluorescence flat and polarisation flat or rising; no compound was filed as active; the % refers to the polarisation; negative = inhibition;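 further: % of control where 0% means no effect; inhibitors lower the polarisation; unlabelled MLL peptide was the positive control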
gsp antag – antagonists of gsp mutant (McCune-Albright syndrome); hit rate 0.4% among 340,000; gsp-mutant cells, cAMP HTRF, 30 min; control for the full effect not named in the record; Potency, µM (highest dose often 76.9 µM), inactives show at the highest dose activity change, negative = inhibition, most hits filed as inhibitors; active = falling curve of any shape with a large fitted effect; inconclusive = falling curve, mostly with a smaller effect; inactive = flat or rising curve; cell line not stated here;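 further: intracellular cAMP measured with PDE inhibitor Ro 20-1724 present during compound exposure; potency means the concentration at half of the fitted maximal effect; on the % scale 0 is the no-effect control and ±100 the full control effect; nearly all actives have a fitted effect of over 65% in size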
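Measurement of cellular cAMP by homogeneous time-resolved fluorescence following a 30 min compound exposure at 37C. The PDE inhibitor […] was present throughout; the assay buffer was DPBS with 0.05% BSA and 0.005% Tween 20.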
PINK1 expr mod – changes PINK1 expression | PINK1 immunofluorescence, high-content cytometry, 24 h | Potency, µM (top dose mostly 76.6 µM), for inactives: top-dose activation (PINK1 increase), hits mostly activators | hit rate 0.2% among 410,000; active = well fitted activation curve with a large enough effect; inconclusive = small, poorly fitted or top-dose-only effect; inactive = flat fitted curve, though single readings scatter; cell line not stated here;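 further: potency means the concentration at half of the fitted maximal effect; % of control where 0% means no effect; nearly all actives have a fitted effect of over 65% in size; a mitochondrial uncoupler was the plate control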
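Measures PINK1 amount and localization on or inside mitochondria by immunofluorescence. Stable cells get compounds at 5 concentrations for 24 hours before fixation and staining; CCCP controls included.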
* marks the source's active call; other numbers are inactive results; ? = inconclusive; · = not tested or not shown; & = joins results of further samples; [ ] = another dose, or the depositor's remark.

SMILES	D2 agonist	ClpP mod	Sfp PPTase inh	gsp ag	Menin-MLL FL inh	gsp antag	PINK1 expr mod
CCOC(=O)C(=NC1CCS(=O)(=O)C1)NNc1ccccc1Cl (centres undefined)	0.3	-0.5%	?	?	1.1	-2%	-0.8%
Cc1ccc(S(=O)(=O)N2CCN(C(=O)c3cc(C4CC4)nc4c3cnn4C(C)C)CC2)cc1	-3.0	-3.7%	·	-5%	·	?	0.0%
CCOc1ccc(NC(=S)N2CCN(S(C)(=O)=O)CC2)cc1	-3.8	-11%	7%	-49%[inhibitor]	0.3	16%	-2.7%
COc1ccc(C(C)(NC(C)=O)c2nc(-c3cccc4cccnc34)cs2)cc1 (centres undefined)	0.6	0.7%	·	·	·	·	4.7%
COc1ccccc1C1CC(c2ccc(Cl)cc2)Nc2nc(N)nn21 (centres undefined)	-0.6	-1.4%	12%	-6%	-2.9	11%	5.5%[38.3 µM]
Cc1c(NS(=O)(=O)c2cccc(C(=O)NCc3ccccc3)c2)c(=O)n(-c2ccccc2)n1C	-2.5	-4.8%	-19%	21%[15.4 µM]	1.1	2%	0.2%
CCCN(CC(=O)Nc1ccccc1C)C(=O)c1ccc(N2CCOCC2)c([N+](=O)[O-])c1	-0.2	-0.8%	·	-2%	·	0%	2.7%
CCOC(=O)C1CCN(C(=S)NC(=O)c2cccs2)CC1	-3.2	·	-7%	21%[15.4 µM]	-5.5	-31%	0.8%
COc1cccc(OC)c1C(=O)Nc1nnc(-c2ccc(F)cc2)s1	-3.8	-17%	6%	-8%	6.9	-15%	2.4%
COc1cccc(-c2ccc(CN3C(C(C)C)C(=O)N(Cc4cn(CCC5OCCO5)nn4)CCS3(=O)=O)cc2)c1OC (centres undefined)	-2.1	0.3%	·	·	·	·	1.2%
O=C(CSc1ccc(-c2cccc([N+](=O)[O-])c2)nn1)NC1CCCC1	-3.5	·	17%	9%[15.4 µM]	-2.4	0%	14%
Cc1ccc(-c2csc(C(O)(c3ccccc3)C(F)(F)F)n2)cc1C (centres undefined)	-3.4	-1.0%	·	·	·	·	?
O=C(Nc1cccc(Cc2ccccc2)c1)Nc1ccc2nc([C@@H]3O[C@H](CO)[C@@H](O)[C@H](O)[C@H]3O)[nH]c2c1	6.7	-1.0%	·	·	·	·	-0.4%
CC(=O)Oc1ccc(C(=O)Nc2ccccc2C(=O)N2CCCCC2)cc1	-2.1	·	7%	-23%	-1.4	-2%	-1.1%
COc1ccc(C(C(=O)NCc2ccccc2)N(C(=O)c2snc(C(N)=O)c2N)c2ccccc2OC)cc1 (centres undefined)	5.0	·	8%	-15%	-4.8	-22%	4.2%
CC(=O)NCC(=O)NC1CCCc2c1cnn2-c1ccccc1F (centres undefined)	1.1	0.7%	24%	-7%	3.4	3%	1.5%
CCCCNC(=O)C1CCN(c2nc(OC)nc(OC)n2)CC1	0.5	-7.0%	-3%	12%	-1.3	6%	-3.3%
Cc1ccc(C(=O)NCC(=O)NCCSc2ccc(Br)cc2)cc1	-4.6	?	·	-11%[15.4 µM]	·	6%	1.4%
COCCCNc1nc2c(c(=O)n(Cc3ccc(F)cc3)c(=O)n2C)n1C	3.8	-1.4%&-12%	5%	?	4.4	-2%	-0.7%&3.5%
CCOC(=O)C1CCN(C(=O)c2cc(-c3ccncc3)nc3ccccc23)CC1	4.5	-1.2%	·	4%	·	-3%	3.0%
COc1ccc(CN(C)C(=O)[C@H]2O[C@@H](n3cnc4c(N)ncnc43)[C@H](O)[C@@H]2O)cc1OC	-2.3	-0.4%	·	·	·	·	8.1%
CC(NC(=O)COc1cccc(Br)c1)C(=O)O (centres undefined)	-4.7	28µM*	22%	?	0.3	7%	-1.2%
C=C(C)Cn1c(C)cc(C)c(S(=O)(=O)c2ccccc2C)c1=O	-1.7	1.2%	-1%	21%	0.6	-12%	1.9%
Cc1ccc(CNC(=O)CCS(=O)(=O)c2cccc3nsnc23)cc1	-1.1	-3.1%	8%	-8%	-1.2	8%	-4.9%
Cc1ccc(CN2CCN(Cc3cn(C)nc3-c3ccccc3)CC2CCO)o1 (centres undefined)	-2.9	·	9%	-5%	-2.3	7%	-1.4%
Cc1ccsc1/C=N/NC(=O)c1ccc(Cn2cc(Br)cn2)o1	-1.3	-3.6%	5%	-53%[inhibitor]	0.7	-9%	8.9%
C/C(O)=C\c1nc2ccccc2oc1=O	4.8	-2.0%	?	13%	1.8	-6%	-1.6%
Cc1cc(C(=O)N2CCN(S(=O)(=O)c3ccccc3C#N)CC2)c(C)o1	-3.5	-0.3%	·	5%[15.4 µM]	·	12%	1.5%
CCOc1ccc(S(=O)(=O)N2CCOCC2)cc1NC(=O)CSCC(=O)Nc1ccc(OC)cc1	2.3	-2.7%	·	-10%	·	-2%	-0.7%
COc1ccc(Cl)cc1S(=O)(=O)NC(C)C(=O)NCc1ccc2c(c1)OCO2 (centres undefined)	-5.2	0.5%	-4%	-11%[15.4 µM]	-4.0	-7%	3.7%
COc1ccccc1Nc1nc(N)nc(CN2CCCCC2)n1	-2.4	-0.6%	-4%	22%[15.4 µM]	0.3	-4%	0.9%
CCOC(=O)c1c(C)[nH]c(C)c1C(=O)COC(=O)/C=C/c1cccc(Cl)c1	-8.3	-1.4%	5%	-5%	3.6	-10%	6.0%
O=C(O)c1cc(Cl)c(Cl)cc1C(=O)N1CCOCC1	0.5	0.4%	-2%	1%	-0.3	11%	-1.1%[38.3 µM]
N#CCC(=O)N1CCN(C(c2ccccc2)c2ccccc2)CC1	2.8	·	·	0%[15.4 µM]	·	-17%	-0.6%
COc1ccc(CCNC(=O)COc2ccc(-c3ccc(C#N)cc3)cc2)cc1	-0.7	?	-14%	4%	1.6	-18%	6.4%
O=C(NC1CC2CCCC(C1)N2C(=O)NC1CCCCC1)c1ccc(F)cc1 (centres undefined)	-4.0	-0.7%	18%	2%	8.5	15%	2.4%
Cc1nc(C(=O)N(C)C)nn1-c1cc(Cl)ccc1Cl	-2.4	0.2%	3%	-12%	-2.4	7%	1.4%
N#Cc1cc(C(=O)c2cc(F)ccc2O)cn(Cc2ccccc2)c1=O	0.3	·	8%	9%[15.4 µM]	?	-18%	-0.1%
COc1ccc(OC)c(C2NC(=O)CCC2[N+](=O)[O-])c1 (centres undefined)	-4.1	0.5%	2%	25%	3.9	9%	-0.5%
Cn1c(SCC(=O)NC2CCCCC2)nnc1-c1cccnc1	-1.8	·	15%	33%	3.5	0%	-0.3%
O=c1c(S(=O)(=O)c2ccc(Cl)cc2)cn(Cc2ccccc2F)c2ccc(F)cc12	-2.6	-0.6%	10%	-19%	0.2	-8%	0.0%
O=C(COC(=O)C1CC2CCCC(C1)C2=O)Nc1ccccc1 (centres undefined)	-2.0	8.9%	·	-69%[inhibitor]	·	14%	2.9%
Fc1ccccc1-c1nc2ncccc2o1	0.0	0.1%	4%	10%[15.4 µM]	0.7	-13%	2.2%
COCCCNC(=O)C12CCC(C)(C(=O)C1)C2(C)C (centres undefined)	-1.6	2.5%	7%	9%	0.8	2%	-0.1%
COc1ccccc1N1CCN(CC(=O)Nc2cccc(F)c2)CC1	-2.6	3.9%	13%	6%	0.0	0%	8.9%
CC1CCCCN1c1ncnc(N)c1[N+](=O)[O-] (centres undefined)	-3.6	·	10%	1%[15.4 µM]	-0.5	-13%	0.0%
O=C(NCCN1CCOCC1)c1ccc(Cl)cc1O	-2.5	·	9%	5%[15.4 µM]	1.2	-1%	0.4%
C=CCc1c(NCCO)nc(C)[nH]c1=O	-3.4	·	-7%	-13%[15.4 µM]	0.6	19%	-0.5%
Cc1cc[n+](C(C)C(=O)c2ccc(Cl)cc2)cc1 (centres undefined)	-1.8	-1.3%	0%	0%[15.4 µM]	-0.4	-3%	0.2%
CC(C)NC(=O)c1cc2cc(Br)ccc2oc1=O	-3.6	-3.3%	2%	-22%	2.4	-7%	-0.3%
CC(C)C[C@H](NC(=O)N1CCn2c1nc1ccccc12)C(=O)NCc1ccc2c(c1)OCO2	-0.5	0.5%	15%	13%	0.2	-4%	0.3%
O=C(CSc1nnc(Cn2nnc(-c3ccccc3)n2)n1-c1ccccc1)Nc1ccc(F)cc1	-0.8	-1.3%	19%	10%	4.1	8%	·
Nc1ccc(N2CCN(c3ccc(F)cc3)CC2)cc1	2.7	·	-3%	1%	-4.4	2%	-0.1%
Cc1ccc(OCCN2CCC2(C)C(=O)Nc2ccc3c(c2)OCO3)cc1 (centres undefined)	4.4	-5.7%	·	·	·	·	-0.6%
COc1ccccc1CNS(=O)(=O)c1c(C(=O)N2CCCCCC2)c(C)n(C)c1C	-6.3	0.1%	15%	-38%[inhibitor]	1.0	7%	0.1%
CCCC(=O)Nc1sc2c(c1C(=O)OC)C(C(=O)OC)CC2 (centres undefined)	-3.5	-14%	-7%	23%	-0.5	-3%	-1.3%
Cc1c(C(=O)Nc2cc(F)cc(F)c2)cnn1-c1ccccc1	0.5	-1.2%	-6%	-15%	0.9	-20%	-0.2%
O=C(O)C1CCCN1c1ncnc2ccccc12 (centres undefined)	-3.2	-3.1%	?	-4%	4.1	0%	·
COc1cccc(/C=N/Nc2ccnc(=O)[nH]2)c1O	0.4	·	15%	6%	-0.1	0%	-1.4%
Cc1ccc(C(=O)/C=C/Nc2ccccc2C(N)=O)cc1	-5.4	-14%	12%	10%	14	-2%	2.1%
O=c1ccn([C@@H]2O[C@H](CNCc3ccccc3)[C@@H](O)[C@H]2O)c(=O)[nH]1	-5.4	2.0%	·	·	·	·	2.2%
Cc1ccccc1-n1c(Cn2c(=O)sc3ccccc32)nnc1SCC(N)=O	-2.9	0.5%	-1%	-81%[inhibitor]	-0.5	6%	-0.1%
